Source: PubChem BioAssay
MT1-MMP txn act – MT1-MMP promoter transcription activation; activation factor at 10 µM; 86,000 tested, 0.16% active; AID 750; HT1080 MT1-MMP promoter luciferase reporter, luminescence, overnight; active compounds read high;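 active = activation factor of at least 2 for MT1-MMP transcription at 10 µM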
sEH inhibitor – soluble epoxide hydrolase (human) inhibition; recombinant human sEH enzymatic activity assay; inhibition, % at 2 µM; 91,000 tested, 0.34% active; in the data active = inhibition above about 80%; note: values of inactives mirror those of a sister screen read the other way; many of its hits are not listed in these tables
Candida biofilm – kills Candida albicans biofilms; C. albicans biofilm + clotrimazole, Alamar Blue; inhibition, % at 6 µM; 85,000 tested, 0.14% active;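 active = inhibition above 20%; inactive = inhibition below 20%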;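 note: preformed 24 hr biofilms exposed to compound for 48 hr; 0% = biofilm without compound and 100% = blank killed by clotrimazole plus chlorhexidine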
sEH activator – soluble epoxide hydrolase (human) activation; 91,000 tested, 0.04% active; purified human sEH enzymatic activity, activator screen; P34913; activation, % at 2 µM; in the data active = activation above about 37%; note: values of inactives mirror those of a sister screen read the other way
CD11b adhes inh – blocks human CD11b/CD18 adhesion to fibrinogen; K562 CD11b/CD18 adhesion to fibrinogen, ATPlite luminescence; Mn2+ added to activate the integrin; inhibition, % at 10 µM; 93,000 tested, 0.54% active; AID 1497;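 active = primary inhibition of 50% or more at 10 µM, then 40% or more on retest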; note: some results filed as inactive read as strong as hits
CD11b adhes enh – enhancers of human CD11b/CD18 binding to fibrinogen. activation, % at 10 µM. 93,000 tested, 0.07% active. AID 1499. K562 CD11b/CD18 adhesion to fibrinogen, ATPlite luminescence;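 active = 10 µM primary screen giving 50% or more activity, confirmed by 40% or more on retest at that dose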; note: strong numbers were not always called active; reference of the scale not given here
Smad3 inh – inhibitors of human Smad3 transcription factor binding | P84022 | TR-FRET Smad3/Dy647-FoxH1 peptide binding, europium anti-His | inhibition, % at 25 µM | 88,000 tested, 0.29% active;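 active = compounds that reduce the energy-transfer binding signal between the protein and its labelled peptide by more than half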;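 note: 0% = Smad3 plus labelled peptide maximal FRET and 100% = peptide-only background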
Target sequence (P84022 whole entry, looked up): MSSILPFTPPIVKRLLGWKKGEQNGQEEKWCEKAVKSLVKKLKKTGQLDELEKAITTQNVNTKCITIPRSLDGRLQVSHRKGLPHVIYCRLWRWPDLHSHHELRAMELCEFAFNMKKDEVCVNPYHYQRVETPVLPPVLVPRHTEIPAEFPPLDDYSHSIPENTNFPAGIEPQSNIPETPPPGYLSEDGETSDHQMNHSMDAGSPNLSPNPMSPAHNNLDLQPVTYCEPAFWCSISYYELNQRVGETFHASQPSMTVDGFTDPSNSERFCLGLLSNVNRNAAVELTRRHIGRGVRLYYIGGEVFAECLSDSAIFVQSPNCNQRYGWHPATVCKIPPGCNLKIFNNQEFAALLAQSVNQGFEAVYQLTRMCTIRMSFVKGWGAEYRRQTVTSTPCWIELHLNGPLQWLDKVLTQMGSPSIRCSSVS
The depositor's hits bear a star; / = not tested or not shown; [ ] = dose if it differs, or a comment. Not all compounds are listed; the hit share may differ from the screen's.

(1) Clc1ccc2c(c1)C(N1CCNCC1)=Nc1ccccc1O2
(2) CC(=O)OCC(=O)[C@@]1(O)CC[C@H]2[C@@H]3CCC4=CC(=O)CC[C@]4(C)[C@H]3C(=O)C[C@@]21C
(3) O=C(O)c1cccnc1
(4) C[C@H]1C[C@@H]2[C@H]([C@@H](O)C[C@@]3(C)[C@H]2CC[C@]3(O)C(=O)CO)[C@@]2(C)C=CC(=O)C=C12
(5) CC(=O)Nc1nnc(S(N)(=O)=O)s1
(6) CNC(=O)Oc1ccc2c(c1)[C@]1(C)CCN(C)[C@@H]1N2C
assay / entry	1	2	3	4	5	6
MT1-MMP txn act	1.1	1.1	1.1	1.2	1.1	1.1
sEH inhibitor	/	/	/	/	/	/
Candida biofilm	6	12	10	12	12	9
sEH activator	/	/	/	/	/	/
CD11b adhes inh	/	/	/	/	/	/
CD11b adhes enh	/	/	/	/	/	/
Smad3 inh	8	14	-2	1	-19	2

(7) COc1ccc(CCN(C)CCCC(C#N)(c2cc(OC)c(OC)c(OC)c2)C(C)C)cc1OC (centres undefined)
(8) COc1ccc(NS(=O)(=O)c2ccc(N)cc2)nn1
(9) OCCCN=c1cc(-c2ccccc2)oc2ccc(Cl)cc12
(10) CCC(CO)NCCNC(CC)CO (centres undefined)
(11) CC1(C)S[C@@H]2[C@H](NC(=O)Cc3ccccc3)C(=O)N2[C@H]1C(=O)O
(12) OC(CCN1CCCC1)(c1ccccc1)C1CCCCC1 (centres undefined)
assay / entry	7	8	9	10	11	12
MT1-MMP txn act	0.9	/	1.5	1.1	1	1
sEH inhibitor	/	/	-1	6	/	/
Candida biofilm	6	1	5	4	6	-4
sEH activator	/	/	2	-6	/	/
CD11b adhes inh	/	/	8	10	/	/
CD11b adhes enh	/	/	-6	4	/	/
Smad3 inh	0	-4	20	8	-10	5

Full records, looked up by structure:
CCC(CO)NCCNC(CC)CO (centres undefined) reads MT1-MMP txn act: 1.1; sEH inhibitor: 6; Candida biofilm: 4; sEH activator: -6; CD11b adhes inh: 10; CD11b adhes enh: 4; Smad3 inh: 8
COc1ccc(NS(=O)(=O)c2ccc(N)cc2)nn1 reads MT1-MMP txn act: /; sEH inhibitor: /; Candida biofilm: 1; sEH activator: /; CD11b adhes inh: /; CD11b adhes enh: /; Smad3 inh: -4

(next part)
(13) COc1ccc2c(c1OC)C(=O)O[C@@H]2[C@H]1c2c(cc3c(c2OC)OCO3)CCN1C
(14) CS(=O)(=O)Nc1ccc([N+](=O)[O-])cc1Oc1ccccc1
(15) CCN(CC)CCOC(=O)C1(C2CCCCC2)CCCCC1
(16) O=C(Oc1cccc2c(O)cccc12)c1ccccc1
(17) CCOC(=O)[C@H](CCc1ccccc1)N[C@@H](C)C(=O)N1CCC[C@H]1C(=O)O
(18) CCCC(CCC)C(=O)OC1C[C@H]2CC[C@@H](C1)[N+]2(C)C (some centres undefined)
assay / entry	13	14	15	16	17	18
MT1-MMP txn act	1.2	1.2	1.1	1.3	1.2	1
sEH inhibitor	/	/	/	/	/	/
Candida biofilm	13	-2	7	5	7	-3
sEH activator	/	/	/	/	/	/
CD11b adhes inh	/	/	/	6	/	/
CD11b adhes enh	/	/	/	5	/	/
Smad3 inh	-7	4	14	-1	-1	-3

Part of the list above in order of formula weight, descending.
(13) COc1ccc2c(c1OC)C(=O)O[C@@H]2[C@H]1c2c(cc3c(c2OC)OCO3)CCN1C
(11) CC1(C)S[C@@H]2[C@H](NC(=O)Cc3ccccc3)C(=O)N2[C@H]1C(=O)O
(15) CCN(CC)CCOC(=O)C1(C2CCCCC2)CCCCC1
(12) OC(CCN1CCCC1)(c1ccccc1)C1CCCCC1 (centres undefined)
(18) CCCC(CCC)C(=O)OC1C[C@H]2CC[C@@H](C1)[N+]2(C)C (some centres undefined)
(10) CCC(CO)NCCNC(CC)CO (centres undefined)
assay / entry	13	11	15	12	18	10
MT1-MMP txn act	1.2	1	1.1	1	1	1.1
sEH inhibitor	/	/	/	/	/	6
Candida biofilm	13	6	7	-4	-3	4
sEH activator	/	/	/	/	/	-6
CD11b adhes inh	/	/	/	/	/	10
CD11b adhes enh	/	/	/	/	/	4
Smad3 inh	-7	-10	14	5	-3	8

Single entries from the list:
Smad3 inh, cpd 14 is entered as 4
Candida biofilm, cpd 12 is entered as -4
Smad3 inh, cpd 4 is entered as 1

Continued.
(19) CC(C)(Oc1ccc(CCNC(=O)c2ccc(Cl)cc2)cc1)C(=O)O
(20) O=C(COC(=O)CCOc1ccccc1)NCc1ccco1
(21) O=C(Nc1cccc(C(F)(F)F)c1)c1ccc2nc(-c3ccco3)c(-c3ccco3)nc2c1
(22) NS(=O)(=O)c1cc2c(cc1Cl)NC(CSCc1ccccc1)=NS2(=O)=O
(23) CCc1cccc2c3c([nH]c12)C(CC)(CC(=O)O)OCC3 (centres undefined)
(24) CC(C)NCC(O)COc1ccc(CCOCC2CC2)cc1 (centres undefined)
assay / entry	19	20	21	22	23	24
MT1-MMP txn act	1.1	1.1	/	1.1	1.2	1.1
sEH inhibitor	/	-6	6	/	/	/
Candida biofilm	8	3	1	10	6	5
sEH activator	/	6	-5	/	/	/
CD11b adhes inh	/	-1	9	/	/	/
CD11b adhes enh	/	15	-4	/	/	/
Smad3 inh	2	16	2	-4	2	6

(25) O=C(O)Cc1ccc(-c2ccccc2)cc1
(26) C[C@@H]1C[C@H]2[C@@H]3CCC4=CC(=O)C=C[C@]4(C)[C@@]3(F)[C@@H](O)C[C@]2(C)[C@H]1C(=O)CO
(27) CCCc1cc(=O)[nH]c(=S)[nH]1
(28) CC1(C)S[C@@H]2[C@H](NC(=O)[C@H](C(=O)O)c3ccsc3)C(=O)N2[C@H]1C(=O)O
(29) CN1CCN2c3ccccc3Cc3ccccc3C2C1 (centres undefined)
(30) O=C(O)[C@@H](O)[C@H](O)C(=O)O
assay / entry	25	26	27	28	29	30
MT1-MMP txn act	1.1	1.2	0.9	1	1.1	/
sEH inhibitor	/	/	/	/	/	/
Candida biofilm	-1	7	14	9	11	/
sEH activator	/	/	/	/	/	/
CD11b adhes inh	/	/	/	/	/	/
CD11b adhes enh	/	/	/	/	/	/
Smad3 inh	5	5	1	2	3	11

(31) Cc1ccnc2c1NC(=O)c1cccnc1N2C1CC1
(32) CC(O)Cn1cnc2c1c(=O)n(C)c(=O)n2C (centres undefined)
(33) CC(C)CN=c1cc(-c2ccccc2)oc2ccc(Cl)cc12
(34) CCCC1O[C@@H]2C[C@H]3[C@@H]4CCC5=CC(=O)C=C[C@]5(C)[C@H]4[C@@H](O)C[C@]3(C)[C@]2(C(=O)CO)O1 (some centres undefined)
(35) c1ccc2sc(SN3CCOCC3)nc2c1
(36) CC(=O)OCC(=O)[C@@]12OC(C)(C)O[C@@H]1C[C@H]1[C@@H]3C[C@H](F)C4=CC(=O)C=C[C@]4(C)[C@@]3(F)[C@@H](O)C[C@@]12C
assay / entry	31	32	33	34	35	36
MT1-MMP txn act	1.1	1.1	1.4	1.3	1.3	1.1
sEH inhibitor	5	/	-4	/	/	/
Candida biofilm	-6	13	-2	12	7	-2
sEH activator	-4	/	6	/	/	/
CD11b adhes inh	-14	/	/	/	/	/
CD11b adhes enh	-2	/	/	/	/	/
Smad3 inh	0	6	-11[fluorescence artefact?]	-1	23	-5

(37) COCCc1ccc(OCC(O)CNC(C)C)cc1 (centres undefined)
(38) NC(CO)C(=O)NNCc1ccc(O)c(O)c1O (centres undefined)
(39) COc1ccc(Nc2nc(Nc3ccc(OC)cc3)nc(SC3=NCCS3)n2)cc1
(40) Cc1cc(NC(=O)C2=C(O)c3ccccc3S(=O)(=O)N2C)no1
(41) COc1cc(NS(=O)(=O)c2ccc(N)cc2)ncn1
(42) O=C1c2cccc(O)c2C(=O)c2c(O)cccc21
assay / entry	37	38	39	40	41	42
MT1-MMP txn act	1.1	1.1	1	1.1	/	1
sEH inhibitor	/	/	3	/	/	/
Candida biofilm	5	1	0	12	4	4
sEH activator	/	/	-8	/	/	/
CD11b adhes inh	/	/	-14	/	/	/
CD11b adhes enh	/	/	0	/	/	/
Smad3 inh	4	9	19	-10	6	12

(43) CN1CCN(C2=Nc3cc(Cl)ccc3Nc3ccccc32)CC1
(44) CCc1cn([C@H]2C[C@H](O)[C@@H](CO)O2)c(=O)[nH]c1=O
(45) CC[C@]1(O)CC2CN(CCc3c([nH]c4ccccc34)[C@@](C(=O)OC)(c3cc4c(cc3OC)N(C=O)[C@H]3[C@@](O)(C(=O)OC)[C@H](OC(C)=O)[C@]5(CC)C=CCN6CC[C@]43[C@@H]65)C2)C1 (some centres undefined)
(46) O=c1[nH]c(=O)n([C@H]2C[C@H](O)[C@@H](CO)O2)cc1C(F)(F)F
assay / entry	43	44	45	46
MT1-MMP txn act	1.2	1	0.5	0.8
sEH inhibitor	/	/	/	/
Candida biofilm	10	14	9	10
sEH activator	/	/	/	/
CD11b adhes inh	/	/	/	/
CD11b adhes enh	/	/	/	/
Smad3 inh	-4	6	-3	7
